Source: PubChem BioAssay (National Center for Advancing Translational Sciences (NCATS))
GLA inh pH 4.5: alpha-galactosidase A (human) inhibition, pH 4.5; 230,000 tested, under 10 active; purified enzyme, 4-MU-alpha-Gal fluorescence, pH 4.5; P06280; activity change, negative = inhibition, % at 105 µM; inconclusive = small, poorly fitted or top-dose-only inhibition, or a rising curve; inactive = flat fitted curve, though single readings scatter; no compound was filed as active;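 note: 0% = full activity with enzyme and -100% = basal without enzyme; dose as in the result columns while the protocol names 77 µM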
Target sequence (P06280 whole entry, looked up): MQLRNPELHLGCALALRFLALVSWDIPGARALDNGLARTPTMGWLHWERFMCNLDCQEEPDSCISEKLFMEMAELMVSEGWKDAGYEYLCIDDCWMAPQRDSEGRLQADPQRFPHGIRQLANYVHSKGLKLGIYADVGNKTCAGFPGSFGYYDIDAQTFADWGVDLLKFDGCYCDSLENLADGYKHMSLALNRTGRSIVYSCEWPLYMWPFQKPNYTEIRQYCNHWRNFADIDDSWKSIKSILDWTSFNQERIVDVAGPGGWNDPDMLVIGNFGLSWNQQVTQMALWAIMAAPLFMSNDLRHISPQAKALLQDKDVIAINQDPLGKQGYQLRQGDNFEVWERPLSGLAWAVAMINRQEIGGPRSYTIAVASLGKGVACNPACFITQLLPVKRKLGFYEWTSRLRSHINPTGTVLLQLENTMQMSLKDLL
miR-21 reporter: miR-21 reporter, rising signal; HeLa miR-21 FLuc reporter, luciferase, 48 h; Potency, µM (highest dose often 38.3 µM), for the others: top-dose reporter change, positive = more light; 340,000 tested, under 10 active; AID 2288; active = well fitted rising curve with a large enough effect; inconclusive = small, poorly fitted or top-dose-only effect; inactive = no such curve, though single readings can be large or run the other way;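 note: % of control where 0% means no effect; miR-21 action dims this reporter so a rising signal means less miR-21 action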
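Luminescence from a firefly luciferase reporter carrying a miR-21 binding site downstream, stably expressed under a CMV promoter in HeLa cells that make miR-21 endogenously, reports miRNA modulation after 48 h compound exposure up to approximately 40uM final.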
Rango complex inh: Rango-importin beta binding inhibition | Rango CFP/YFP FRET sensor + importin beta, 45 min | AID 540263 | Potency, µM (doses to about 92.2 µM), for inactives: at the highest dose inhibition of complex formation | Q14974 | 340,000 tested, 0.031% active; active = rising FRET ratio curve, often small or poorly fitted; inconclusive = mostly compound fluorescence or quenching in the first reads; inactive = flat curves in all reads;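 note: potency is the fitted concentration of half-maximal effect; 0% = DMSO wells and 100% = buffer wells lacking importin beta; nearly all actives have a fitted effect of over 15% in size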
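Inhibition scored from the CFP 486 nm/YFP 530 nm FRET ratio 45 min after adding 0.125 microM importin beta to 50 nM Rango biosensor preincubated 5 min with compound (room temperature, PBS with DTT, Tween-20, BSA). No-importin wells as positive control.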
Rango release inh: prevents RanGTP from dissociating the Rango-importin beta complex; 340,000 tested, 0.071% active; AID 540253; Biochemical FRET Rango-importin beta, RanGTP-induced dissociation; O95149+P62826; Potency, µM (doses to about 46.1 µM), inactives show top-dose activity change, negative = inhibition; active means falling FRET ratio curve, often poorly fitted, with flat reads before Ran was added; inconclusive means other falling curves, or compound fluorescence or quenching; inactive means flat or rising ratio curve;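 note: potency is the fitted concentration of half-maximal effect; % of control where 0% means no effect; nearly all actives have a fitted effect of over 45% in size; -100% = wells without RanGTP and RCC1; the record marks most hits as doubtful in a second field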
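Rango (0.1 uM)–importin beta (0.25 uM) complex; RanGTP-RCC1 trigger; 45 min RT; CFP/YFP FRET read.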
Active calls of the source: *; ? = inconclusive; . = no result given; & = joins results of further samples; [ ] = dose if it differs, or a comment.

GLA inh pH 4.5	miR-21 reporter	Rango release inh	Rango complex inh	structure
0	?	2%	-0.1%	COc1ccc(N2CCN(C(=O)Cn3nnc(-c4ccccc4N)n3)CC2)cc1
.	-3%	8%	1.8%	CCc1nnc(NS(=O)(=O)c2ccc(NC(=O)c3cccc(OC)c3)cc2)s1
-4	-3%	14%	-1.2%	N#Cc1ccccc1S(=O)(=O)Nc1ccc2c(c1)C(=O)OC2
-14	0%	11%	2.5%	O=C(NCCCN1CCC(Cc2ccccc2)CC1)c1ccc2nc(N3CCOCC3)sc2c1
2	0%	19%	7.0%	Cc1ccc(F)cc1NC(=O)C12CC3CC(C1)CC(n1cnc([N+](=O)[O-])n1)(C3)C2
.	-9%	-8%	-1.3%	Cc1ccc(C(=O)NCC2CCCO2)cc1S(=O)(=O)N1CCCCC1 (centres undefined)
.	.	-4%	3.7%	CCC1(c2ccc(F)cc2)NC(=O)N(CC(=O)N2CCN(S(=O)(=O)c3ccc(Cl)cc3)CC2)C1=O (centres undefined)
-2	0%	-2%	-1.2%	CN(CP(=O)(O)CCc1ccccc1)S(C)(=O)=O
-1	-35%	-18%	4.8%	O=C(Nc1ccccc1)ON=C1CCCC1
4	?	9%	-1.0%	Cc1nn(-c2ccccc2)c(C)c1/C=N/Nc1nc2ccccc2[nH]1
2	-3%	2%	2.4%	NC(=O)c1ccccc1OCC(=O)NS(=O)(=O)c1ccccc1
-8	-1%	-8%	1.4%	CCn1ccnc1CN(C)Cc1cn(-c2cc(C)ccc2C)nc1-c1ccccc1
.	.	-10%	-3.0%	CCOC(=O)c1cc2c(c(-c3ccccc3)n1)[C@@H](CCO)N(S(=O)(=O)C(C)(C)C)C2
.	-36%	-15%	-1.7%	O=C(Nc1nnc(-c2ccc(F)cc2)s1)c1ccco1
.	.	9%	3.8%	CCN(C(=O)C=Cc1ccco1)c1ccccc1
.	17%&2%	-4%	?	Cn1cc(S(=O)(=O)N2CCCC2)cc1C(=O)N1CCN(c2cccc(Cl)c2)CC1
5	-6%	-9%	-1.1%	CCCCC(C(=O)NCCC(C)C)N(CCCN1CCOCC1)C(=O)c1snc(C(N)=O)c1N (centres undefined)
.	.	3%	0.6%	CS(=O)(=O)c1ccc(CNC(=O)C2(C(F)(F)F)CC(CCCO)CCCO2)cc1 (centres undefined)
-1	0%	-12%	-1.7%	Brc1cccc(-c2nnc3sc(CN4CCCCC4)cn23)c1
2	15%	10%	1.7%	O=C(CSc1nnc(-c2ccccc2)c(-c2ccccc2)n1)NCc1ccco1
0	6%	-4%	-7.0%	COc1ccccc1NC(=O)CC(c1ccc(OC(C)C)cc1)c1ccccc1OC (centres undefined)
-16	-1%	-2%	?	CCN(CC)S(=O)(=O)c1cc(NC(=O)CSc2nc3c(cc2C#N)C(=O)CC(C)(C)C3)ccc1C
-3	-7%	1%	3.1%	O=S(=O)(c1ccccc1)N1CCN(C(=S)Nc2ccc(F)cc2)CC1
-3	5%	27%	0.5%	Cc1ccc(-c2ccc(S(=O)(=O)NCC3CCCO3)cc2)cc1 (centres undefined)
-10	-6%	-17%	2.6%	COc1ccc(-c2cn(/N=C/c3ccc(Cl)cc3Cl)c(N)n2)cc1
.	.	9%	-1.1%	c1cnc2ccc(C(c3nnnn3C3CCCCC3)N3CCN(C4CCCCC4)CC3)cc2c1 (centres undefined)
-18	-8%	-4%	0.3%	C(=N\n1cncn1)/c1ccc(N2CCOCC2)cc1
-7	-64%	0%	-3.9%	O=C(NC(=S)Nc1nc2ccccc2s1)c1ccco1
1	-1%	1%	-0.1%	CC(=O)N1CSCC1C(=O)NNS(=O)(=O)c1ccccc1 (centres undefined)
6	-12%	-2%	-4.2%	COc1ccc(S(=O)(=O)NCCSc2ccccc2)cc1OC
-1	-1%	0%	?	COc1ccc([N+](=O)[O-])cc1NC(=O)CCN1CCN(CCO)CC1
.	.	25%	-4.2%	CCN1CCCC1CNC(=O)Cn1cc(C)c(=O)[nH]c1=O (centres undefined)
.	0%	0%	2.9%	COc1ccc(Cn2c(CO)cnc2SCC(=O)Nc2cccc(NC(C)=O)c2)cc1
.	.	-11%	0.1%	CC(=O)Nc1ccc(NC(=O)COC(=O)c2ccc([N+](=O)[O-])o2)cc1
-2[21.1 µM]	1%	-3%	?	COCCCN(C(=S)Nc1ccc(OC)cc1)C(C)c1ccncc1 (centres undefined)
-5	-4%&-8%	-6%	5.1%	COCCNC(=O)CCC(=O)NNc1nc2ccccc2c2nc(-c3ccccc3)nn12
4	1%	14%	2.6%	CCOC(=O)N1CCC(NC(=O)c2cc(C(=O)NC3CCN(Cc4ccccc4)CC3)ccc2CO)CC1
4	-6%	-8%	3.2%	Cc1ccc(N2CCC(N3CCN(C4CCCCC4)C(CCO)C3)CC2)cc1 (centres undefined)
5	-19%	0%	-2.9%	CCOC(=O)C1(Cc2ccc(OC)cc2)CCN(S(C)(=O)=O)CC1
2	-4%	-5%	-0.1%	Cc1ccc(-c2nnc(SCC(=O)N/N=C/c3cccs3)n2-c2ccc(C)cc2)cc1
.	-1%	21%	0.1%	Cc1cc(OC(=O)c2ccc(F)cc2)c([N+](=O)[O-])c(=O)[nH]1
8	-19%	3%	-2.3%	CC(=O)Nc1sc2c(c1C#N)CCCC2
.	.	-9%	0.6%	COc1ccc(-c2cccc3c2C2CC3CCN2C(=O)OCc2ccccc2)cc1 (centres undefined)
7	-17%	-7%	-0.2%	O=C(COC(=O)c1ccc(NS(=O)(=O)c2cccs2)cc1O)Nc1nc2ccccc2s1
4	8%	-19%	3.1%	Cc1[nH]n(C2=NCCS2)c(=O)c1N=Nc1cccc(C(F)(F)F)c1
.	-1%	1%	0.8%	O=C(O)c1ccccc1NC(=O)c1ccccc1-c1ccccc1C(=O)O
-1	4%	-5%	?	CCC(Sc1nc(C)cc(=O)[nH]1)C(=O)Nc1nc2c(s1)CCCC2 (centres undefined)
.	-2%	3%	3.7%	COc1cc(OC)cc(C(=O)N[C@H](C(=O)NCc2ccc(F)cc2)C(C)C)c1
.	-1%	-3%	-1.5%	COc1ccc(CCNc2nc(-c3ccc(F)cc3)c(CC(=O)O)s2)cc1OC
2	-4%	16%	-1.1%	CSc1nnc(C(C)c2ncc(C(F)(F)F)cc2Cl)n1C (centres undefined)
3	-3%	-4%	-0.4%	CSc1nnc(-c2cccc(C)c2)n1N
-2	-26%	-23%	-5.1%	COc1cc(/C=N/NC(=O)C(Cc2c[nH]c3ccccc23)NC(=O)OCC(C)C)cc([N+](=O)[O-])c1O (centres undefined)
.	.	-1%	-5.1%	COc1ccc(C2=CC(=O)C[C@H](c3ccc4c(c3)OCO4)C2)cn1
.	.	12%	-0.6%	Cc1ccccc1NC(=O)CSC(=O)c1ccccc1
.	-1%	-17%	-2.4%	O=C(NCCCN1CCOCC1)c1c(F)c(F)c(F)c(F)c1F
6	-3%	-4%	-1.1%	C=CCn1c(SCc2cc(=O)n3cc(C)ccc3n2)nnc1-c1ccc(F)cc1
.	-40%	0%	5.3%	O=C1c2ccccc2C(=O)N1CCOc1cccc(Br)c1
7	-2%	17%	0.5%	COc1ccc(C2(C(=O)NC3CCCCC3)CCOCC2)cc1OC
-6	-68%	-18%	-0.8%	O=C(CSCc1ccccc1)Nc1ccc(F)c(F)c1
1	0%	-13%	5.9%	COC(=O)c1nc(N)sc1C(C)C

Some of the entries so far, with two lines to a compound:
Value order: GLA inh pH 4.5 | miR-21 reporter | Rango release inh | Rango complex inh
CCCCC(C(=O)NCCC(C)C)N(CCCN1CCOCC1)C(=O)c1snc(C(N)=O)c1N (centres undefined)
→ 5 | -6% | -9% | -1.1%
CS(=O)(=O)c1ccc(CNC(=O)C2(C(F)(F)F)CC(CCCO)CCCO2)cc1 (centres undefined)
→ . | . | 3% | 0.6%
Brc1cccc(-c2nnc3sc(CN4CCCCC4)cn23)c1
→ -1 | 0% | -12% | -1.7%
O=C(CSc1nnc(-c2ccccc2)c(-c2ccccc2)n1)NCc1ccco1
→ 2 | 15% | 10% | 1.7%
COc1ccccc1NC(=O)CC(c1ccc(OC(C)C)cc1)c1ccccc1OC (centres undefined)
→ 0 | 6% | -4% | -7.0%
CCN(CC)S(=O)(=O)c1cc(NC(=O)CSc2nc3c(cc2C#N)C(=O)CC(C)(C)C3)ccc1C
→ -16 | -1% | -2% | ?

Remaining list, next part:
GLA inh pH 4.5	miR-21 reporter	Rango release inh	Rango complex inh	structure
10	-4%	0%	-0.5%	CCn1c(CCNC(=O)c2ccc(F)cc2)nc2ccccc21
-1	-2%	1%	-3.3%	Cc1c(NC(=O)c2ccc(N(C)S(C)(=O)=O)cc2)c(=O)n(-c2ccccc2)n1C
0	20%	-13%	0.1%	Cc1ccc(-c2noc(C3CCN(C(=O)Nc4ccc(C#N)cc4)CC3)n2)o1
8	-1%	-17%	-4.3%	COc1ccc(C(=O)NN(c2ccccc2)c2ccccc2)cc1
6	-1%	1%	-0.3%	CCOC(=O)N1CCN(C(=O)c2noc(C(C)C)c2[N+](=O)[O-])CC1
1	-8%	-10%	?	Cc1ccc(C)c(CN2C(=O)C3CCCN3c3ccc(C#N)cc32)c1 (centres undefined)
-20	0%	-16%	1.1%	CCOC(=O)Nc1c(O)ccc2oc(C)c(-c3ccccc3)c12
.	.	-1%	0.3%	Nc1cc(C(=O)OCC(=O)NNC(=O)c2cccs2)ccc1Cl
2	-11%	?	?	COc1ccc(C(=O)/C=C/Nc2ccc([N+](=O)[O-])cc2C)c(OC)c1
.	.	-3%	-0.1%	Cc1ccccc1Sc1ccc(N)cn1
-3	-3%	-13%	-4.1%	OC(COC(c1ccccc1)c1ccccc1)CN1CCc2ccccc2C1 (centres undefined)
.	-1%	6%	-3.8%	C=CCNc1nc(NCc2ccccc2)nc(OCC)n1

The last 2 records of the section above are carried over, then new ones follow.
GLA inh pH 4.5	miR-21 reporter	Rango release inh	Rango complex inh	structure
-3	-3%	-13%	-4.1%	OC(COC(c1ccccc1)c1ccccc1)CN1CCc2ccccc2C1 (centres undefined)
.	-1%	6%	-3.8%	C=CCNc1nc(NCc2ccccc2)nc(OCC)n1
.	0%	-9%	-1.1%	COc1ccc(N2CCN(C(=O)c3ccc(-c4ccccc4)cc3)CC2)cc1
.	-1%	15%	-2.3%	CNC(=O)c1cccc(NC(=O)CCCNC(=O)c2ccc(Cl)cc2)c1
2	-1%	?	?	O=C1NC(=O)C2C1C(c1ccc([N+](=O)[O-])cc1)=NN2Cc1ccccc1 (centres undefined)
.	11%	13%	0.3%	CCC1CCCCN1C(=O)c1cc(COc2ccc(-n3cncn3)cc2)on1 (centres undefined)
.	.	7%	-3.8%	COc1ccc(NC(=O)N(O)C2(C#N)CCCCC2)cc1
.	.	-16%	0.1%	CCOc1cc(/C=N/NC(=O)C(O)(c2ccccc2)c2ccccc2)ccc1OC(=O)c1ccco1
9	0%	-3%	-1.4%	Cc1ccccc1Cc1c(C)nc2c(C(=O)NCc3ccc4c(c3)OCO4)cnn2c1C
.	3%	15%	1.3%	CCOCCCNC(=O)CN1C(=O)COc2ccc(S(=O)(=O)N3CCC(C)CC3)cc21
-9	5%	-7%	-2.6%	Cc1cccn2cc(CCNS(=O)(=O)c3ccc([N+](=O)[O-])cc3)nc12
.	-1%	1%	-0.8%	Cc1nc(N2CCN(c3ccccc3F)CC2)[nH]c(=O)c1C
-3	-22%	?	-1.1%	O=C(CSc1nc2ncccc2[nH]1)Nc1ccc2c(c1)OCCO2
.	-23%	-13%	3.2%	CC1CCCCN1C(=O)CNCc1ccc(F)cc1 (centres undefined)
.	8%	2%	-4.4%	COc1ccc(C(=O)N2CCCC2(C#N)c2ccccc2)cc1[N+](=O)[O-] (centres undefined)
5	-36%	-16%	0.1%	COc1ccc(-c2ccc(C(=O)O)c(=O)[nH]2)cc1
-1	-21%	31%	-2.4%	Cn1cnnc1SCC(=O)Nc1nc(-c2ccccc2)cs1
5	-2%	7%	3.3%	C=CCn1c(C(C)NC(=O)COC)nc2ccccc21 (centres undefined)
.	.	-2%	3.2%	O=C(NCCC1CCCCN1S(=O)(=O)c1ccccc1)C(=O)NCCN1CCOCC1 (centres undefined)
.	.	-11%	-2.9%	Cc1c(Cl)cccc1N=C1SCCN1C(=O)CN1C(=O)NC2(CCCC2)C1=O
1	-2%	-9%	-2.7%	O=C(NC1CCCCC1)C(c1ccccn1)N(C(=O)Cc1cccs1)c1ccc(Cl)cc1 (centres undefined)
4	-5%	1%	1.3%	COc1nc(-c2ccc(Cl)cc2)nnc1C

A portion of the library; count on the stated rates, not on these rows.
